# From PubChem BioAssay
# GLA inh pH 4.5 = qHTS Assay for Inhibitors of Human alpha-Galactosidase at pH 4.5. 230,000 tested, under 10 active. purified enzyme, 4-MU-alpha-Gal fluorescence, pH 4.5. activity change, negative = inhibition, % at 105 µM; inconclusive = small, poorly fitted or top-dose-only inhibition, or a rising curve; inactive = flat fitted curve, though single readings scatter; no compound was filed as active;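 note: 0% = full activity with enzyme and -100% = basal without enzyme; dose as in the result columns while the protocol names 77 µM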
# Target sequence (P06280 whole entry, looked up): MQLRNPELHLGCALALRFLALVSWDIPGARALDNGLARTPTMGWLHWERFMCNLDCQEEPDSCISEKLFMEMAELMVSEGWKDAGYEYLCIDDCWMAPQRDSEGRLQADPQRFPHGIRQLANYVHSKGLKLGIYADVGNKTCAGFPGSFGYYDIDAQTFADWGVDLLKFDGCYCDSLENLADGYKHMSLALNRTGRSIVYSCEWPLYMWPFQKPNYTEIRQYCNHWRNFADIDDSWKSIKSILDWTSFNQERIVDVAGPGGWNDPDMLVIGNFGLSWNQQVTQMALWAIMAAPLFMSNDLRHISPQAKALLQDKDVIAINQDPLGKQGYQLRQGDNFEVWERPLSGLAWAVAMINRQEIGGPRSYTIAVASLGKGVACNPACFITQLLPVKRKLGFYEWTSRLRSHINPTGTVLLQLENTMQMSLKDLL
# miR-21 FLuc = qHTS Assay for Modulators of miRNAs and/orActivators of miR-21; HeLa miR-21 FLuc reporter, luciferase, 48 h; Potency, µM (top dose mostly 38.3 µM), inactives show top-dose reporter change, positive = more light; 340,000 tested, under 10 active; active = well fitted rising curve with a large enough effect; inconclusive = small, poorly fitted or top-dose-only effect; inactive = no such curve, though single readings can be large or run the other way;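 note: % of control where 0% means no effect; miR-21 action dims this reporter so a rising signal means less miR-21 action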
#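 HeLa cells endogenously expressing miR-21, stably carrying CMV-driven firefly luciferase with a downstream miR-21 binding site, 2000 cells/well. Titrations up to approximately 40 uM, 48 hours; luciferase luminescence read.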
# Starred values were filed as active, the others as inactive; ? = inconclusive; nt = not tested or not shown.
no.	Molecule	miR-21 FLuc	GLA inh pH 4.5
1	C[C@]12CCC(=O)C=C1CCC1C3CC[C@](O)(C(=O)CO)[C@@]3(C)CC3OC312 (stereo partly drawn)	nt	-1.3
2	CCOC(=O)Oc1c(OC)cc(C(=O)O[C@H]2C[C@H]3CN4CCc5c([nH]c6cc(OC)ccc56)[C@@H]4C[C@H]3[C@@H](C(=O)OC)[C@@H]2OC)cc1OC	nt	1.9
3	CCCC[C@@H]1C[C@H]1C(NC(=O)c1ccco1)c1ccc(Cl)cc1 (stereo partly drawn)	nt	-7.9
4	CC(C)c1nc(N(C)S(C)(=O)=O)nc(-c2ccc(F)cc2)c1/C=C/C(O)CC(O)CC(=O)O (stereo not drawn)	nt	3.9
5	CC(C)C(C)/C=C/C(C)C1CCC2C3=CC=C4CC(O)CCC4(C)C3CCC21C (stereo not drawn)	nt	-3.9
6	COCCNC(=O)C1(C)C=CCN1C(C)=O (stereo not drawn)	nt	2.9
7	Cc1cc(C)c(NC(=O)C[C@H](CC(=O)O)c2cccc3ccccc23)c(C(=O)N2CCC3(CCCC3)CC2)c1	nt	1.1
8	CN1CCc2cc(NC(=O)Nc3cccnc3)ccc21	nt	-4.5
9	C[C@@H]1CCC2C(C)(C)C3CC21CC[C@@]3(C)O (stereo partly drawn)	nt	-2.9
10	CCOC(=O)c1ccccc1NC(=O)c1sc2nc3n(c(=O)c2c1C)CCCCC3	-1.0%	nt
11	COC(=O)c1sccc1S(=O)(=O)N(CC(=O)NCc1ccccc1)c1ccc(C)cc1	2.0%	nt
12	CCOc1ccc(NC(=O)CC2C(=O)N(c3ccccc3)C(=O)N2C2CCCC2)cc1 (stereo not drawn)	-2.1%	nt
13	COc1cccc(CNCc2c(C(=O)O)c(C)n(Cc3ccc(F)cc3Cl)c2C)c1OC	-1.2%	nt
14	Cc1ccc(CNC(=O)c2sc3nc4n(c(=O)c3c2C)CCCCC4)cc1	-0.7%	nt
15	O=C(Nc1nc(-c2ccccc2)ns1)c1ccc(Cl)cc1	-5.5%	nt
16	COC(=O)c1ccc(NC(=O)CSc2nc3c(c(=O)n(C)c(=O)n3C)n2Cc2ccccc2)cc1	1.0%	nt
17	O=C(CSc1nncn2c1cc1occc12)Nc1ccc(F)c(Cl)c1	-4.7%	nt
18	Nc1c(C(=O)Nc2ccc(F)c(F)c2)sc2nc(-c3ccncc3)ccc12	-14.5%	nt
19	O=C(Nc1ccccc1Cl)c1cc(S(=O)(=O)N2CCC3(CC2)OCCO3)ccc1F	4.3%	nt
20	CC(C)(C)C(=O)OC1=CN(Cc2ccccc2)S(=O)(=O)c2ccccc21	18.5%	nt
21	O=C(Nc1ccc2nc(SCC(=O)N3CCc4ccccc43)sc2c1)c1ccccc1	5.2%	nt
22	COc1ccc(N2CCN(C(=O)c3oc4ccccc4c3NC(=O)c3ccccc3OC)CC2)cc1	-9.6%	nt
23	Cc1ccc(CN2CCC(CNC(=O)c3cnn(-c4ccc(C)cc4)c3C3CCN(C(=O)OC(C)(C)C)CC3)CC2)cc1	0.0%	nt
24	CCOCCc1nnc(NC(=O)C(=O)c2cc(C)n(-c3ccc(C)cc3C)c2C)s1	9.5%	nt
25	COCCCNC(=O)CCCn1c(SCC(=O)c2ccc(F)cc2)nc2c(sc3ccccc32)c1=O	-3.5%	nt
26	CCCCC(=O)Nc1ccccc1C(=O)OCc1cc(=O)n2nc(C3CCCCC3)sc2n1	-1.3%	nt
27	CC(=O)c1cc(-c2ccc(F)cc2)n(CCC(=O)NC2CCCCC2)c1C	1.4%	nt
28	CN(CC(=O)Nc1ccc(Br)cc1)S(=O)(=O)c1cccc2nsnc12	11.7%	nt
29	O=C(CS(=O)(=O)c1cccc2nsnc12)N1CCN(c2cccc(Cl)c2)CC1	5.6%	nt
30	Cc1cc(C)cc(OCC(=O)N(Cc2cccs2)c2ccc(Cl)cc2)c1	10.2%	nt
31	CCN(C(=O)CSc1nc2ccccc2nc1Cc1ccc(F)cc1)c1cccc(C)c1	3.1%	nt
32	O=C(c1cnn(-c2ccc(F)cc2)c1-n1cccc1)N1CCN(c2cccc(Cl)c2)CC1	-2.9%	nt
33	CCn1c(CN2CCCCC2)nc2cc(NC(=O)c3cc(OC)c(OC)c(OC)c3)ccc21	-2.2%	nt
34	COc1ccc(N2CCN(C(=O)CN3C(=O)CSc4c3c(C)nn4-c3ccccc3)CC2)cc1	-4.0%	nt
35	Cc1c(-c2ccc(Cl)cc2)c(=O)oc2c(CN3CCN(C)CC3)c(O)ccc12	-5.8%	nt
36	COc1ccc(NC(=O)CSc2nc3c(c(=O)[nH]2)CCC3)cc1	-1.8%	nt
37	CCc1nc(-c2cc(S(=O)(=O)N3CCN(c4ccc(F)cc4)CC3)ccc2OC)no1	0.6%	nt
38	O=C(CCC1N=C2c3ccccc3N=C(SCc3ccccc3Cl)N2C1=O)N1CCN(c2ccccc2)CC1 (stereo not drawn)	-8.1%	nt
39	COc1cc(Cl)c(C)cc1NC(=O)CCn1cnc2onc(-c3ccc(F)cc3)c2c1=O	2.4%	nt
40	COC(=O)c1ccc2c(c1)N(CC(=O)Nc1ccc(C)c(C)c1)C(=O)c1ccccc1S2	1.8%	nt
41	Cc1ccc(C)c(NC(=O)Cn2nnc(C(=O)NCCc3ccccc3)c2N)c1	-19.3%	nt
42	COc1ccc(N(CC(=O)Nc2cccc(Cl)c2)S(=O)(=O)c2c(C)[nH]c(=O)[nH]c2=O)cc1	0.1%	nt
43	Cc1ccc(-c2nc(C(=O)Nc3cccc(C#N)c3)c3n2CCCCC3)cc1	-12.6%	nt
44	Cc1ccc(CCNC(=O)c2ccc3c(c2)c(C)c(C)n3Cc2ccccc2)cc1	-1.5%	nt
45	COc1ccc(C(=O)NCC(c2ccc3c(c2)OCO3)N2CCOCC2)cc1OC (stereo not drawn)	-12.4%	nt

# Molecules above containing an NH in an aromatic ring, in the order listed:
no.	Molecule	miR-21 FLuc	GLA inh pH 4.5
2	CCOC(=O)Oc1c(OC)cc(C(=O)O[C@H]2C[C@H]3CN4CCc5c([nH]c6cc(OC)ccc56)[C@@H]4C[C@H]3[C@@H](C(=O)OC)[C@@H]2OC)cc1OC	nt	1.9
36	COc1ccc(NC(=O)CSc2nc3c(c(=O)[nH]2)CCC3)cc1	-1.8%	nt
42	COc1ccc(N(CC(=O)Nc2cccc(Cl)c2)S(=O)(=O)c2c(C)[nH]c(=O)[nH]c2=O)cc1	0.1%	nt

# Remaining list, next part:
no.	Molecule	miR-21 FLuc	GLA inh pH 4.5
46	CCNc1nc(N)nc(Oc2ccc(OCC(=O)OC)nn2)n1	-2.9%	nt
47	Cc1nn(-c2nc(-c3ccc(F)cc3)cc(C(F)(F)F)n2)c(C)c1Cl	-8.1%	nt
48	Cc1ccc(-n2c3c(c(=O)[nH]c2=O)C(NC(=O)c2ccccc2C)(C(F)(F)F)C(=O)N3)cc1 (stereo not drawn)	1.8%	nt
49	Cc1ccc(C(C)C)c(OCC(=O)Nc2ccc(O)c(-c3nc4cc(Cl)ccc4o3)c2)c1	-7.1%	nt
50	CCOc1ccc(C2c3c(oc4ccccc4c3=O)C(=O)N2Cc2ccc3c(c2)OCO3)cc1 (stereo not drawn)	-5.3%	nt
51	COC(=O)c1ccc(OCC2c3cc(OC)c(OC)cc3CCN2C(=O)c2ccccc2C)cc1 (stereo not drawn)	6.7%	nt
52	COc1ccc(-c2nc(C)c(CCNC(=O)c3ccccc3Br)s2)cc1OC	-31.9%	nt
53	O=C(NCc1cccc(Br)c1)c1ccc(NC(=O)N2CCCCc3ccccc32)cc1	1.8%	nt
54	Cc1ccc(-c2nc(C)c(CCNC(=O)C(=O)Nc3ccc(C)c(Cl)c3)s2)cc1	-10.2%	nt
55	CC1CCN(C(=O)Cn2cc(SCC(=O)Nc3ccccc3C(F)(F)F)c3ccccc32)CC1	?	nt
56	Cc1cc(C)cc(NC(=O)CCn2cnc3ccccc3c2=O)c1	-16.5%	nt
57	COc1ccc(CNC(=O)CN2C(=O)COc3ccc(S(=O)(=O)Nc4ccccc4)cc32)cc1	-0.1%	nt
58	CCCc1ccc(-c2ccc(C(=O)Oc3ccc(OCC)cc3)cc2)nc1	-24.5%	nt
59	CCOc1ccc2nc(N3CCN(C(=O)c4ccc(S(=O)(=O)CC)cc4)CC3)sc2c1	9.9%	nt
60	COc1ccccc1N1CCN(c2ccc(NC(=O)c3ccc(C)cc3)cc2C(=O)O)CC1	-28.4%	nt

# Record cards, as listed above:
# COc1ccc(-c2nc(C)c(CCNC(=O)c3ccccc3Br)s2)cc1OC as listed: miR-21 FLuc: -31.9%; GLA inh pH 4.5: nt
# Cc1ccc(C(C)C)c(OCC(=O)Nc2ccc(O)c(-c3nc4cc(Cl)ccc4o3)c2)c1 as listed: miR-21 FLuc: -7.1%; GLA inh pH 4.5: nt

# Part of the list above, with the structure last:
no.	miR-21 FLuc	GLA inh pH 4.5	Compound
56	-16.5%	nt	Cc1cc(C)cc(NC(=O)CCn2cnc3ccccc3c2=O)c1
57	-0.1%	nt	COc1ccc(CNC(=O)CN2C(=O)COc3ccc(S(=O)(=O)Nc4ccccc4)cc32)cc1
58	-24.5%	nt	CCCc1ccc(-c2ccc(C(=O)Oc3ccc(OCC)cc3)cc2)nc1
59	9.9%	nt	CCOc1ccc2nc(N3CCN(C(=O)c4ccc(S(=O)(=O)CC)cc4)CC3)sc2c1

# Further structures follow:
no.	Molecule	miR-21 FLuc	GLA inh pH 4.5
61	O=c1c(NCc2cccs2)nccn1-c1ccc(F)cc1	-49.0%	nt
62	O=C(Cc1ccccc1)Nc1sc2c(c1C(=O)Nc1ccc(Cl)cc1)CCCC2	-1.9%	nt
63	CCN(CC)S(=O)(=O)c1ccc(NC(=O)Cn2ncc3c([nH]c4ccccc43)c2=O)cc1	6.6%	nt
64	Cc1cc(C)cc(NC(c2nnc(-c3cccc(F)c3)o2)c2ccc(F)cc2Cl)c1 (stereo not drawn)	19.9%	nt
65	O=C(Nc1ccccc1C(=O)OCc1cc(=O)n2ccsc2n1)c1ccccc1Cl	1.2%	nt
66	CCOc1ccc(-c2nnc(SCC(=O)c3ccccc3)n2-c2ccccc2)cc1	-3.3%	nt
67	CCCN(CCC)C(=O)Cn1c(=O)n(-c2cccc(OC)c2)c(=O)c2c(C)c(C(=O)N(C)C)sc21	-0.8%	nt
68	CCOC(=O)c1ccc(NC(=O)Cn2c(=O)cc(C)c3c(C)nn(-c4cccc(F)c4)c32)cc1	-0.8%	nt
69	Fc1ccc(Nc2nc(SCc3cccc(F)c3)nc3ccccc23)cc1	12.8%	nt
70	Cn1c(=O)n(C)c2cc(N3CCCCC3)c(NC(=O)c3ccc(Cl)cc3)cc21	2.0%	nt
71	Cc1cccc(C)c1NC(=O)CCCN1C(=O)CCn2nc(-c3cn(C)c4ccccc34)cc21	2.0%	nt
72	CCCNC(=O)c1ccc(Cn2c(=O)c3cccn3c3cccnc32)cc1	-19.7%	nt
73	COc1cccc(CNC(=O)C(NS(=O)(=O)c2ccc3nc(C)sc3c2)C(C)C)c1 (stereo not drawn)	5.6%	nt
74	Cc1ccc(OCc2nc(-c3ccc(C(=O)N4CCN(c5ccc(Cl)cc5)CC4)cc3)oc2C)cc1	0.6%	nt
75	Cc1ccc(OCC(=O)Nc2cc(-c3nc4ccccc4[nH]3)ccc2C)c(C)c1	-18.7%	nt
76	CCn1cc(S(=O)(=O)c2ccccc2)c(=O)c2cc(F)c(N3CCCC3)cc21	-10.8%	nt
77	COC1(C(F)(F)F)NC(=O)N(c2ccc(F)cc2)C1=O (stereo not drawn)	-3.8%	nt
78	CCOCCCNC(=O)c1cc2c(-c3ccc(OC)c(OC)c3)nn(C)c2s1	-0.7%	nt
79	Cc1ccc(-c2cc(-c3coc4ccccc4c3=O)c3c(n2)-c2cc(Cl)ccc2OC3)cc1	-2.6%	nt
80	CCC(=O)Oc1cc(C(C)(C)C)cc2cc(-c3nc(-c4ccc(OC)cc4OC)no3)c(=O)oc12	-6.4%	nt
81	CCOC(=O)c1c(S(=O)(=O)N2CCCC(C(=O)NCc3ccccc3Cl)C2)c(C)n(C)c1C (stereo not drawn)	3.6%	nt
82	CSc1nc(NCCOC(C)=O)c(C#N)c(-c2ccc(C(C)(C)C)cc2)n1	3.5%	nt
83	COc1ccccc1N1CCN(C(=O)c2nc(-c3ccc(C)cc3)n3c2CCCCC3)CC1	-78.0%	nt
84	COc1ccc(-c2cc(C(=O)Oc3ccc(C)c(C)c3)c3ccccc3n2)cc1	-22.1%	nt
85	Cc1ccc(CN2CCSc3ccc(C(=O)NCc4ccc(OC(C)C)cc4)cc32)cc1	-11.1%	nt
86	Clc1cccc(-n2ncc3c(N4CCC(Cc5ccccc5)CC4)ncnc32)c1	-1.5%	nt
87	COc1ccc(NC(=O)CC2NCCNC2=O)c(OC)c1 (stereo not drawn)	-2.6%	nt
88	COc1ccc(-n2ncc3c(N4CCN(c5cccc(C)c5)C(C)C4)ncnc32)cc1 (stereo not drawn)	15.0%	nt

# These rows are one share of the data. The share of hits here may be higher or lower than overall.
